Assay outcomes (PubChem BioAssay)
Six1-Eya2 inh: Six1/Eya2 interaction inhibition | Q15475+O00167 | AlphaScreen GST-Six1/His-Eya2 binding, biochemical; hits give low values; control for the full effect not named in the record | activity change, % (test concentration not listed) | hit rate 0.56% among 360,000; in the data active = activity change below about -65%; inconclusive = about -30% to -65%; inactive = above about -30%; note: % is set by controls: 0 for no effect and ±100 for the full control effect; compound concentration not given in the record
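Compounds are tested against tagged Six1 and Eya2 proteins bridged by glutathione donor and nickel acceptor beads; after a one-hour incubation at 37 °C without light, AlphaScreen emission is recorded.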
D2 agonist: agonists of human D2 dopamine receptor (beta-arrestin); activation, % (test concentration not listed); DiscoveRx PathHunter D2 beta-arrestin, luminescence, 90 min; 100% = 57 uM dopamine signal; hit rate 0.084% among 360,000; in the data active = activation above about 40%; inconclusive = about 15% to 40%; inactive = below about 15%; note: compound concentration not given in the record; the text of the record calls up to 30% inactive
Target sequence (P14416 whole entry, looked up): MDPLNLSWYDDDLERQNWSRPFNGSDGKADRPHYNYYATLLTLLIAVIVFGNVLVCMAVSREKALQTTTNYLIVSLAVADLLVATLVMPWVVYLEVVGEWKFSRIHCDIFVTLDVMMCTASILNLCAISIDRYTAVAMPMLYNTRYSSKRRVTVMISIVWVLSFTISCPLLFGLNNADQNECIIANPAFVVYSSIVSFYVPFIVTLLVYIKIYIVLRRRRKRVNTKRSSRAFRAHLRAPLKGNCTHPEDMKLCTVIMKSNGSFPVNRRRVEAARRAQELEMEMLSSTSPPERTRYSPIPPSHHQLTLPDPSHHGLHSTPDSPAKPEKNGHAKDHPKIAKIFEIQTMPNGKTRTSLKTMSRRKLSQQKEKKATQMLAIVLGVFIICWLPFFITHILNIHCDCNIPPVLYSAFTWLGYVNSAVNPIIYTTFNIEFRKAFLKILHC
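DiscoveRx PathHunter D2 beta-arrestin cells (2,100/well) attached overnight, then compound-stimulated 90 min at 37 C in HBSS/10 mM HEPES/0.1% Tween-20 buffer; beta-galactosidase complementation read by luminescence after 1 h at ambient temperature. Dopamine 57 uM final (EC100) as control.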
CtBP-E1A blk: blocks the CtBP interaction with E1A; AlphaScreen GST-E1A/His-CtBP binding, 1536-well; hits give low values; control for the full effect not named in the record; hit rate 0.49% among 340,000; AID 651724; activity change, % (no concentration beside the values); in the data active means activity change below about -65%; inconclusive means about -30% to -65%; inactive means above about -30%; note: % is set by controls: 0 for no effect and ±100 for the full control effect; compound concentration not given in the record
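Protein mix (5X: 125 nM each GST-E1A, His-CtBP) was incubated with pinned compound 2 h at 37 deg C in dark, in 50 mM Tris pH 8.0 buffer with 300 mM NaCl. Glutathione donor and nickel acceptor beads followed; AlphaScreen signal read after 1 h.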
gsp agonist: activates gsp, the McCune-Albright syndrome mutation | gsp mutant cells, cAMP HTRF, 30 min; control for the full effect not named in the record | Potency, µM (top dose mostly 76.9 µM), inactives show at the highest dose activation (cAMP increase), hits mostly activators | hit rate 0.13% among 340,000; active = well fitted activation curve with a large enough effect; inconclusive = small, poorly fitted or top-dose-only effect, or another doubt; inactive = no such curve, though single readings can be large or run the other way; cell line not stated here;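 note: phosphodiesterase inhibitor Ro 20-1724 added with compounds to block cAMP breakdown; potency is the fitted concentration of half-maximal effect; nearly all actives have a fitted effect of over 60% in size; about a fifth of the inactives were tested at one dose only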
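Cells in DMEM/10% FBS with G418 were pretreated with compounds in DMSO plus […] (300 uM stock) for 30 min at 37C. cAMP was measured by HTRF (cAMP-d2 plus anti-cAMP antibody-K) after 30 min at room temperature.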
gsp antag: antagonists of gsp mutant (McCune-Albright syndrome). gsp-mutant cells, cAMP HTRF, 30 min; control for the full effect not named in the record. Potency, µM (series often up to 76.9 µM), inactives show top-dose activity change, negative = inhibition, usual class: inhibitors. hit rate 0.4% among 340,000. AID 624288; active = falling curve of any shape with a large fitted effect; inconclusive = falling curve, mostly with a smaller effect; inactive = flat or rising curve; cell line not stated here;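 note: intracellular cAMP measured with PDE inhibitor Ro 20-1724 present during compound exposure; potency is the fitted concentration of half-maximal effect; % is set by controls: 0 for no effect and ±100 for the full control effect; nearly all actives have a fitted effect of over 65% in size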
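HTRF cAMP measurement after 30 min RT detection following 30 min, 37C compound treatment alongside […] (added as 300 uM solution) in G418-selected cells seeded at 2000/well and grown 16–24 h.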
D2 potentiator: human D2 receptor positive allosteric modulation. AID 624464. P14416. DiscoveRx D2 beta-arrestin cells, luminescence, 90 min; 100% = 57 uM dopamine signal. potentiation, % (concentration not given with the values). hit rate 0.23% among 360,000; active = potentiation of 50% or more; inconclusive = 30% to 50%; inactive = 30% or less;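 note: compound concentration not given in the record; tested on top of an EC20 dose of dopamine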
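PathHunter D2 cells, attached overnight at 37 deg C, received compound in DMSO plus dopamine at EC20 (50 nM final) for 90 min at 37 deg C. Beta-arrestin recruitment was read as luminescence after 1 h with detection reagent at ambient temperature.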
The depositor's hits bear a star; ? = inconclusive; . = not tested or not shown; [ ] = remark or other dose.

Order of results: Six1-Eya2 inh	D2 agonist	CtBP-E1A blk	gsp agonist	gsp antag	D2 potentiator
> Cc1ccc(N2C(=O)N(CC(=O)N3CCc4ccccc43)C(=O)C2C)cc1 (centres undefined)
  3	-0.6	2	?	.	-5
> O=C(N/N=C/c1c(O)n(Cc2ccccc2)c(=O)[nH]c1=O)c1ccncc1
  -72*	-3.8	?	-10%[15.4 µM]	4%	-9
> CC1CN1P(=O)(Oc1ccccc1)N1CC1C (centres undefined)
  3	0.8	1	-3%[15.4 µM]	12%	5
> CCC(=O)Oc1ccc(C(=O)Nc2cccc(C(=O)c3ccccc3)c2)cc1
  -21	3.4	-1	-21%	-15%	-3
> C/C(=N\NC(=O)c1ccncc1)c1c(O)n(-c2ccccc2)c(=O)[nH]c1=O
  5	5.2	.	7%	3%	5
> COc1ccc2[nH]cc(C(=O)CN(C)C)c2c1
  -1	-5.8	3	.	7%	-14
> O=C(c1cc2nc(-c3ccccc3)cc(-c3ccccc3)n2n1)N1CCC2(CC1)OCCO2
  38	-4.4	21	-1%	-32%	-15
> O=C(N/N=C/c1c(O)n(CCc2ccc(F)cc2)c(=O)[nH]c1=O)c1ccccc1
  -9	-6.3	-5	-2%	-3%	-10
> CCn1cc(C(=O)N2CCCCC2)c2ccccc21
  0	-3.1	4	-25%	5%	-2
> Cc1cc(OCC(=O)NCC2CCC(C(=O)O)CC2)c2c3c(c(=O)oc2c1)CCC3 (centres undefined)
  -4	-3.5	-21	.	-5%	-14
> COc1ccc(C(c2c(O)c3ccccc3oc2=O)c2c(C)n(C)n(-c3ccccc3)c2=O)cc1 (centres undefined)
  -13	.	-9	-18%[15.4 µM]	14%	-3
> C#C[C@]1(O)CCC2C3CC=C4C[C@H](O)CC[C@]4(C)C3CC[C@@]21C (some centres undefined)
  -12	-2.0	0	-16%	13%	-1
> Clc1ccc(C(Cl)(Cl)Cl)c(Cl)c1
  -3	-2.4	3	.	5%	2
> CCCCn1c(O)c(C(CC)=Nc2ccc(OCC)cc2)c(=O)[nH]c1=O
  -1	1.4	-7	-9%	?	8
> Cc1cccc2c1N(N=O)CCC2
  10	4.5	0	18%[15.4 µM]	9%	-2

Entries of single compounds, quoted from the list. Values in the order: Six1-Eya2 inh | D2 agonist | CtBP-E1A blk | gsp agonist | gsp antag | D2 potentiator
`CCn1cc(C(=O)N2CCCCC2)c2ccccc21` reads 0 | -3.1 | 4 | -25% | 5% | -2
`Cc1ccc(N2C(=O)N(CC(=O)N3CCc4ccccc43)C(=O)C2C)cc1` (centres undefined) reads 3 | -0.6 | 2 | ? | . | -5

Next results.
Order of results: Six1-Eya2 inh	D2 agonist	CtBP-E1A blk	gsp agonist	gsp antag	D2 potentiator
> O=C1NC(=O)C2(CCCC2)C(=O)N1
  7	-3.0	2	6%	3%	-1
> Cc1ccc2c(C)cc[n+](CCCS(=O)(=O)[O-])c2c1
  18	-0.3	48	44%	27%	-9
> Nc1nonc1C(=O)N/N=C/c1ccc([N+](=O)[O-])o1
  ?	-6.2	0	20%[15.4 µM]	-18%	-6
> O=[N+]([O-])c1ccc2nc(N3CCNCC3)ccc2c1
  -11	5.1	-18	.	-5%	-14
> COc1ccc(/C=N/N=C(/N)N[N+](=O)[O-])c(OC)c1
  -1	0.2	1	16%	5%[15.4 µM]	-8
> COc1ccc(C(c2ccc(OC)cc2)C(Cl)(Cl)Cl)cc1
  5	-0.6	9	.	-22%	-18
> O=c1[nH]c(=S)[nH]c(O)c1N=Nc1cc(S(=O)(=O)Nc2ccc(Cl)cc2)ccc1Cl
  -24	-3.0	-26	-47%[inhibitor]	?	-2
> CCCCCn1c(=O)c(C(=O)NCCc2ccccc2)c(O)c2ccccc21
  22	2.7	18	-5%[15.4 µM]	6%	-1
> COc1cccc(-c2sc3ccccc3c2-c2ccc(OCCN3CCOCC3)cc2)c1
  -28	11	-23	.	-3%	-10
> CC(=O)OC1N=C(c2ccccc2Cl)c2cc(Br)ccc2N(C)C1=O (centres undefined)
  -5	-2.2	-21	-19%	-13%	-6
> COc1ccc(C(=O)C2CCCN(Cc3cccc(C)n3)C2)c(OC)c1 (centres undefined)
  -5	-0.3	6	6%[15.4 µM]	4%	-13
> Nc1nc(SCCC(F)=C(F)F)n[nH]1
  -2	1.1	0	10%[15.4 µM]	.	6
> CCN(c1ccc(C(O)(C(=O)OC)C(F)(F)F)cc1)S(=O)(=O)c1ccccc1 (centres undefined)
  -3	-1.9	3	0%	-17%	-4
> CCCCCP(=O)(O)c1ccccc1
  9	-2.7	1	-4%	5%	-18
> O=C(Cn1nc(-c2ccccc2)ccc1=O)N1CCC2(CC1)OCCO2
  3	-4.0	1	3%[15.4 µM]	2%	-10
> CCOC(=O)[C@@]1(C#N)C(c2ccc(Cl)c(Cl)c2)[C@H](C(N)=O)N2C=C(C(C)=O)C=C[C@H]21 (some centres undefined)
  -6	3.6	-14	-25%	-2%	14
> COCCOC(=O)C1=C(N)Oc2c(c(=O)oc3ccccc23)C1c1ccncc1 (centres undefined)
  -2	-2.0	0	14%	1%	3
> Nc1ccccc1C(=O)OCCOc1ccccc1
  26	2.1	24	3%	-3%	-6
> COc1ccc(OC)c(CN2CCCC(C(=O)c3sccc3C)C2)c1 (centres undefined)
  -23	-3.9	.	-32%[inhibitor]	2%	-26
> CC(C)n1nnnc1CN1CCN(C)CC1
  1	-1.7	6	16%	13%	-13
> C[C@]12CCC3C(CC[C@@H]4[C@H]5O[C@H]5CC[C@]34C)C1CC[C@@H]2O (some centres undefined)
  0	1.9	9	24%	3%	-6
> Cc1ccc([C@H]2N[C@]3(CCCN(Cc4ccc(C(F)(F)F)cc4)C3=O)[C@H]3C(=O)N(Cc4ccccc4)C(=O)[C@@H]23)cc1
  -29	2.1	?	?	.	-14
> CCc1ccc2c(c1)Sc1ccccc1CC2N1CCN(C)CC1 (centres undefined)
  -4	-2.7	.	?	6%	-13
> COP(=O)(CC(=O)O)c1ccccc1 (centres undefined)
  4	-3.6	2	3%	10%	-4
> Cc1cccc(C)c1NC1=NCCCS1
  0	-6.7	0	.	-1%	4
> CCOC(=O)Cn1c(=O)oc2cc(S(=O)(=O)N3CCN(C(=O)c4ccco4)CC3)ccc21
  10	?	3	-49%[inhibitor]	6%	5
> Clc1cccc(CNCCc2ccc3c(c2)OCO3)c1
  -4	-1.4	1	?	3%	-12
> Cc1cc(OC(=O)c2ccco2)c2c3c(c(=O)oc2c1)CCCC3
  -5	-5.5	-3	6%	-27%	-14
> COc1nc2ccccc2nc1N1CC1
  5	2.0	10	.	.	-3
> CC1CCC(C)(NS(=O)(=O)OCC(Cl)(Cl)Cl)CC1 (centres undefined)
  15	1.2	14	.	19%	-7
> Cc1cc(=O)[nH]c(SCc2nc3ccccc3c(=O)n2-c2ccccc2C)n1
  4	1.5	0	15%[15.4 µM]	.	-7
> Cc1ccc(-c2ccc3c(c2)O[C@H](CN(C)C(=O)CC2CC2)[C@H](C)CN([C@@H](C)CO)S3(=O)=O)cc1
  -2	-2.9	0	19%	.	-4
> O=c1[nH]c2ccccc2n1C1CCN(C(c2ccccc2OC(F)(F)F)c2nnnn2Cc2ccccc2)CC1 (centres undefined)
  -8	.	-9	.	.	.
> CN1CCN(c2nc3ccccn3c(=O)c2C=C2C(=O)N(C)C(=O)N(C)C2=O)CC1
  9	-4.7	3	?	14%	-37
> CC1(C)C2([N+](=O)[O-])CN3CC1([N+](=O)[O-])CN(C2)C3c1ccccn1 (centres undefined)
  1	-2.8	11	-2%[15.4 µM]	7%	-5
> O=C1Nc2ccc(Br)cc2C(c2ccccc2Cl)=NC1O (centres undefined)
  1	-5.1	-6	.	-3%	-36
> Cc1cccc(N2C(=O)NC(=O)/C(=C\c3ccc4c(c3)CCCN4Cc3ccccc3)C2=O)c1
  -3	-2.8	3	0%	-4%	-13
> CN1CCN(S(=O)(=O)c2ccc(C3CCCCC3)cc2)CC1
  -20	-4.9	-7	-50%[inhibitor]	3%	-33
> CC(C)C[C@H](NC(=O)[C@@H]1CCCN1C(=O)[C@@H](N)Cc1ccc(O)cc1)C(=O)NCC(N)=O
  -3	-6.0	6	.	2%	8
> CNC(=O)Oc1ccc2c(c1)C(=O)c1ccccc1CO2
  1	-3.5	-2	-5%	12%	-17
> COC(=O)C1=C(c2ccc(F)cc2OCc2ccccc2)C[C@@H]2CC[C@H]1N2C
  -2	-4.3	.	16%	8%	-27
> O=C(O)CCn1cc(C=C2C(=O)NC(=S)NC2=O)c(-c2cccc(Cl)c2)n1
  0	-0.3	0	-1%[15.4 µM]	.	8
> CN(C(=O)Oc1cccc2cccnc12)c1ccccc1
  0	1.0	2	-20%	-5%	3
> Cn1c(=O)c2c(nc(N/N=C/c3c(O)n(-c4ccccc4)c(=S)[nH]c3=O)n2C)n(C)c1=O
  -84*	12	-84*	14%[15.4 µM]	-1%	24
> COC(=O)C1=C(c2cc3ccccc3o2)C[C@@H]2CC[C@H]1N2C(=O)N1CCCC1
  -5	-2.4	-2	24%	-15%	-13
> CN1C(=O)C(=Cc2ccc(SC3CCCCC3)o2)C(=O)N(C)C1=O
  8	-10.0	-9	5%[15.4 µM]	-5%	4
> CC(C)(C)c1ccc(CSc2cnn(C(C)(C)C)c(=O)c2Cl)cc1
  7	-3.0	.	?	-18%	-36
> CCOC(=O)[C@@H]1[C@H]2COc3ccc(Br)cc3[C@@H]2N2C(=O)N(c3cccc(C)c3)C(=O)[C@]12C
  -1	0.6	-4	.	-17%	-41
> COc1cc(/C=C/[N+](=O)[O-])ccc1OC(=O)c1cccnc1
  -4	-1.7	.	-40%[inhibitor]	7%	-21
> CCC(=NCc1cc(OC)cc(OC)c1)c1c(O)n(C)c(=O)n(C)c1=O
  -2	-1.5	1	25%	-34%	7
> OCCOc1ccccc1
  -2	-0.2	0	-42%[inhibitor]	15%	1
> Cc1ccccc1N1CCN(C2CCCN(C(=O)COc3ccccc3)C2)CC1 (centres undefined)
  -6	-4.3	-5	-8%	-2%	-44
> O=C(c1ccccc1F)c1cn(CC(=O)N2CCCCC2)c2ccccc12
  -2	-2.6	1	?	-14%	4
> CC1=NCCc2c1[nH]c1cc(O)ccc21
  -10	-0.4	-11	.	1%	-17
> O=c1[nH]c(=O)n(Cc2ccccc2)c(O)c1C=NCCCO
  8	-2.7	-4	28%	4%	-15
> CNc1ccc2nc3ccccc3[n+](C)c2c1
  -75*	-9.0	.	?	?	-15
> CCOP(=O)(C#CC(C)(C)C)C(O)(c1ccccc1)C(F)(F)F (centres undefined)
  4	-3.2	10	-1%	-2%	-9
> c1csc(-c2nnc(Cc3cccc4ccccc34)o2)c1
  1	-1.7	4	7%	-4%	-17
> CC(C)(C)C(=O)Cn1c(NCCCl)nc2ccccc21
  10	-2.7	4	8%[15.4 µM]	11%	-7
> CCCCP(=O)(O)c1ccccc1
  1	0.0	5	5%	13%	4
> CC(=O)c1cn(Cc2ccc(C#N)cc2)c2ccccc12
  17	-3.3	.	9%	31%[activator]	-10

A portion of the library. The share of hits here may be higher or lower than overall.
